UUG fidelity – alters start codon recognition fidelity in yeast; S. cerevisiae UUG-firefly luciferase reporter, luminescence/redox ratio; activity score, % at 18.7 µM; hit rate 0.13% among 350,000; AID 602363;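 active = replicate mean at a twofold rise or more, about +100% in these data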;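 also: firefly luciferase made from a UUG start codon reports start codon fidelity; reporter light over untreated wells divided by growth signal over untreated wells; some hits fall short of that in this replicate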
MT1-MMP act inh – blocks activation of human MT1-MMP. P50281. HT1080 RFP-PRO-GFP cells, GFP/RFP ratio fluorescence, overnight; percent of plate control window, DMSO zero. GFP/RFP ratio change, % at 20 µM. hit rate 0.061% among 360,000;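 active = GFP/RFP ratio change of at least 30% with cell ATP level not reduced by more than half and red fluorescence within 50% of control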; also: strong numbers were not always called active
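Test system: HT1080 cells expressing an RFP-PRO-GFP fluorescent reporter construct / Compound dosing: single-point 20 µM compound, 1% DMSO / Schedule: cells overnight before dosing, compound overnight, 37 °C, 5% CO2 / Evaluation: GFP/RFP fluorescence ratio / Control set: DMSO and RFP-L50D-GFP cell wells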
eIF4H inh – inhibitors of RNA binding by human eIF4H. Q15056. eIF4H fluorescence polarization binding assay. inhibition, % at 35 µM. hit rate 0.94% among 290,000;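 active = 50% or more with normal probe brightness, or confirmed in later tests; inconclusive = above 50% with abnormal brightness, or retests that disagree; inactive = below 50% or failed in later tests; about a fifth of its hits are not listed in these tables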;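 also: calls also rest on retests at 20 µM and on dose response follow-up; 0% = protein and probe with vehicle and 100% = probe without protein; strong numbers were not always called active; many hits fall short of the cut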
PABP FP inh – blocks human PABP binding to poly(A) RNA | fluorescence polarization | inhibition, % at 35 µM | hit rate 1% among 290,000;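 active = 50% or more with normal probe brightness, or confirmed in later tests; inconclusive = above 50% with abnormal brightness, or retests that disagree; inactive = below 50% or failed in later tests; about a fifth of its hits are not listed in these tables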;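 also: calls also rest on retests at 20 µM and on dose response follow-up; controls were probe without protein and protein plus probe with vehicle; some compounds called inactive have numbers as strong as hits; many hits fall short of the cut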
Rce1 inh – yeast Ras-converting enzyme inhibition. yeast membranes, quenched prenylated peptide cleavage fluorescence. calls only. hit rate 0.27% among 290,000. AID 2563;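 active = fall in fluorescence gain of 50% or more versus controls, with final raw signal at or below 3038400; inconclusive = same 50% fall but final raw signal above 3038400; inactive = fall in fluorescence gain under 50%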;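 also: plate controls were neutral control wells for no effect and wells lacking membranes for full effect; tested at 10 µM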
Target sequence (Q03530 whole entry, looked up): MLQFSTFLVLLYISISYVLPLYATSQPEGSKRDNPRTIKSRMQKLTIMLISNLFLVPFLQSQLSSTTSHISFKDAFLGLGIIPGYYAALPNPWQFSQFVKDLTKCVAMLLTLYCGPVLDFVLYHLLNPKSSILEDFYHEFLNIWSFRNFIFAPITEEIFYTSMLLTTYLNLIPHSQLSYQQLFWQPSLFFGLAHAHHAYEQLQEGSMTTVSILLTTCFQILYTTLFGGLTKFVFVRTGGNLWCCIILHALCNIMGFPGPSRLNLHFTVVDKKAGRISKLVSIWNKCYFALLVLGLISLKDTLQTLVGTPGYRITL
CSC inhib – blocks cancer stem cells; cancer stem cell-like cells viability, luminescence; inhibition, % at 7.5 µM; hit rate 1.1% among 300,000; AID 2717;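 active = mean at 75% or more and at least half the replicates too; inconclusive = mean and replicates disagree; tested in HMLE shEcad cells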;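 also: 0% = median of negative and 100% = median of positive control wells; the first replicate is given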
HIV Env fusion – HIV envelope-mediated fusion inhibition. inhibition, % at 12.3 µM. HeLa-JRFL Env/CEM21 cell fusion, luciferase. hit rate 1.1% among 360,000;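 active = mean replicate inhibition score of at least 50 and every replicate individually at or above 50; inconclusive = only one of the two criteria met; inactive = mean below 50 and not all replicates reaching 50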;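 also: 0% = plate neutral controls and 100% = maraviroc near 300 nM; one replicate is shown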
eIF4H inh retest – recorded beside eIF4H inh, whose call it bears; inhibition, %; compound at 20 µM; confirmation average;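 mean of two retest wells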
PABP FP inh retest – recorded beside PABP FP inh, whose call it bears; inhibition, %; compound at 20 µM; confirmation repeats;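 mean of two retest wells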
MT1-MMP act inh RFP – recorded beside MT1-MMP act inh, whose call it bears; RFP signal change, %; measured here: RFP expression control read;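 0 = vehicle wells; hits needed this value within 50% of zero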
* marks the source's active call; other numbers are inactive results; i = inactive; ? = inconclusive; · = no result given.

SMILES	UUG fidelity	MT1-MMP act inh	MT1-MMP act inh RFP	eIF4H inh	PABP FP inh	Rce1 inh	CSC inhib	HIV Env fusion	others
O=C1NC(Cc2c[nH]c3ccccc23)C(=O)N1CCOc1ccc(F)cc1 (configuration not stated)	·	2	-1	-3	0	i	8	-127
Fc1cccc(NC(=S)NCCCN2CCOCC2)c1	-19	1	7	-2	12	i	9	·
COc1ccc(OC)c(N(CC(=O)N2CCc3ccccc3C2)S(C)(=O)=O)c1	1	6	7	-9	1	i	-6	·
C=CCn1c(N)cc(=O)nc1SCC(=O)Nc1ccc2ccccc2c1	1	-4	1	8	4	i	-7	·
COc1ccc(-n2c(Cc3cccn3C)nnc2SCC(N)=O)cc1	6	2	3	-12	-11	i	·	10
COc1ccc(-c2c3c(=O)n(C)c(=O)n(C)c3cn2-c2ccc(O)cc2)cc1	-4	1	5	4	5	i	-5	6
COc1ccc(C(CNC(=O)COc2ccccc2C)N2CCCCC2)cc1 (configuration not stated)	-2	3	7	·	·	·	11	·
CCOC(=O)Oc1ccc(/C=C2\N=C(C)OC2=O)cc1	-7	-2	1	-10	4	i	11	15
O=C(Cc1ccc(Cl)cc1)NNC(=S)NC(=O)c1cccs1	·	3	5	10	0	·	13	7
O=C(Nc1ccccc1)c1ccc(=O)n(Cc2cccc(Cl)c2)c1	·	6	0	1	0	i	-6	2
CCC(C)NC(=O)c1ccccc1NC(=O)CN(c1ccc(OC)cc1)S(C)(=O)=O (configuration not stated)	-12	-1	2	-2	0	i	-2	1
CCCOc1cccc(C(=O)N2CCN(C(=O)C3CCCO3)CC2)c1 (configuration not stated)	-6	-2	4	-2	-5	i	-4	6
COc1ccc(NS(=O)(=O)c2ccc(O)c(NC(=O)c3cc4c(C)nn(-c5ccc(F)cc5)c4s3)c2)cc1	·	-16	-22	24	8	i	114*	·
COc1ccc(-c2nn(Cc3ccccc3)cc2C(=O)N2CCN(c3ncccn3)CC2)cc1	1	-3	0	·	·	·	·	20
O=C(/C=C/Nc1cccc(O)c1)c1ccccc1	-52	-21	-3	48	77	i	1	i	eIF4H inh retest=4;PABP FP inh retest=40
O=C(NC(=S)N1CCCC(O)C1)c1ccco1 (configuration not stated)	-3	5	-3	·	·	·	20	-4
O=C(c1cccs1)N1CCC(Cc2ccccc2)CC1	-8	-1	0	-3	-8	i	9	·
CN(C)C(=O)COC(=O)c1ccccc1Sc1ccccc1C#N	·	2	-1	-2	0	i	6	2
Cc1cc(C)n(CCNC(=O)c2cc(COc3c(F)cccc3F)on2)n1	-15	1	2	6	14	i	7	-12
CCCC(=O)NNc1c2ccccc2nc2ccccc12	19	8	-3	-10	-1	i	-20	-12
COc1cccc(C2Nc3ccccc3NC3=C2C(=O)CC(C)(C)C3)c1 (configuration not stated)	-9	1	4	0	6	i	-19	-2
Cc1nc2cccnc2nc1C	-11	-1	3	11	14	i	1	-3
COc1cc(OC)c(NC(=O)C2CC(=O)N(c3ccc4c(c3)OCCO4)C2)cc1Cl (configuration not stated)	-22	0	0	·	·	i	12	-30
O=C(O)c1cc2nc3c(c(C(F)(F)F)n2n1)CCCC3	-4	0	6	12	12	i	-18	-3
Cc1occc1C(=O)NNC(=O)Nc1ccc([N+](=O)[O-])cc1	·	1	-1	2	0	i	-2	3
Cc1cc(NC(=O)CSc2ccnc(=O)[nH]2)no1	-3	-2	-2	·	·	i	4	·
CCC1(C)NC(=O)N(CC(=O)Nc2sc3c(c2C(N)=O)CCC3)C1=O (configuration not stated)	-6	-4	8	30	24	i	-2	-65
C=CCNc1nc(C(=O)OCC)nc2ccccc12	·	-9	0	-4	-1	i	·	-3
O=C(CCCCn1c(=S)[nH]c2ccsc2c1=O)NCc1ccco1	-28	2	3	-1	-4	i	-5	·
Cc1cc(C(=O)Nc2ccccc2)c2ccccc2n1	46	-7	-1	-1	2	i	-13	-21
COc1cc(C(=O)NC(=S)NNC(=O)c2cnccn2)cc(OC)c1OC	-17	4	2	15	6	i	36	46
COc1cccc(-c2nc(SCC(=O)Nc3nc(-c4ccccc4)c(C)s3)[nH]c(=O)c2C#N)c1	·	3	0	9	20	·	18	13
S=C(Nc1ccccc1)N1N=CCC1c1ccccc1 (configuration not stated)	-12	3	0	-4	-2	i	-4	-32
COc1cc(C2NCC(c3ccc(Cl)cc3Cl)c3c2[nH]c2ccccc32)cc(OC)c1OC (configuration not stated)	5	-16	-14	-5	4	i	81*	·
COc1cc(OC)cc(C(=O)NCCc2ccc(OC)c(OC)c2)c1	-26	0	-3	·	·	i	-15	-5
COc1ccccc1N1C(=O)c2cccc3c(N(C)CCO)ccc(c23)C1=O	-1	-121	3	?	?	i	-10	-40
COCCn1c(SCC(=O)Nc2ccc3c(c2)OCCO3)nnc1-c1c[nH]c2ccccc12	-4	-5	-6	0	5	·	9	·
CC1CCN(c2nc(-c3cccnc3)nc3scc(-c4ccccc4)c23)CC1	·	-10	-5	-20	-6	i	95*	10
COc1ccc(CNC(=O)C(CCSC)NC(=O)c2ccco2)cc1 (configuration not stated)	3	-1	1	-5	-3	i	-13	·
Cc1nn2c(NCCOCCO)c3c(nc2c1-c1ccccc1)CCC3	-4	4	1	-12	2	i	-12	7
O=C(c1ccc2c(=O)n(-c3ccccc3)c(=S)[nH]c2c1)N1CCCCC1	-19	-7	-32	16	3	i	0	13
O=C(NCc1ccco1)C1CC(c2ccccc2C(F)(F)F)=NO1 (configuration not stated)	8	-3	0	-1	3	i	-3	8
COc1cccc(OCC(O)CNC(C)c2ccccc2)c1 (configuration not stated)	-30	-2	1	-10	6	i	-6	48
Cc1noc(C)c1CCC(=O)N1CCCC(N2CCN(c3ccc(F)cc3)CC2)C1 (configuration not stated)	6	3	3	-9	-6	i	2	·
COc1ccccc1Nc1ncc(C(=O)N2CCC(C(N)=O)CC2)c2ccccc12	-10	2	1	-6	2	·	9	-34
Cc1ccc(S(=O)(=O)Nc2nc3ccccc3nc2NCC2CCCO2)cc1 (configuration not stated)	-9	3	-1	2	20	i	-2	0
O=C(CCCCC(=O)NCc1cccs1)NCc1cccs1	-11	-3	3	0	3	i	-2	-2
CCN(CC)S(=O)(=O)c1cccc(C(=O)N[C@H](C(=O)NC2=NCCS2)C(C)C)c1	·	5	-2	·	·	·	-9	6
COc1cc(NC(=O)c2ccc(Cl)cc2Cl)ccc1-c1cc2ccccc2oc1=O	-9	13	5	-7	-4	i	4	-148
N#C/C(=C\c1ccc(-c2ccccc2Cl)o1)C(=O)Nc1nc2ccccc2s1	-7	-2	0	19	10	i	3	-1
CNS(=O)(=O)c1ccc(NC(=O)c2cc(-c3ccncc3)nc3ccc(Cl)cc23)cc1	4	-1	-1	-10	-6	i	1	11
O=C(NCc1ccc2c(c1)OCO2)C(=O)NC1CCCCC1	-16	-7	-7	6	2	i	-17	-2
Cc1ccc(S(=O)(=O)Nn2cnnc2)cc1	·	3	2	8	14	i	-13	-1
COc1ccc(/C(C)=N/NC(=O)CNC(=O)c2ccncc2)cc1	-4	1	5	-14	-2	i	-5	17
CCOc1cc(N2CCOCC2)c(OCC)cc1NC(=O)CN1CCSC1=O	-16	4	5	·	·	·	·	-5
C=CCn1cnc2c(nnn2Cc2ccc(F)cc2)c1=O	-6	1	-1	4	-4	i	-13	8
Cc1ccc(NC(=O)c2ccc(NS(=O)(=O)c3c(C)noc3C)cc2)cc1C	7	0	-4	-5	12	i	-11	·
COCC(N)(c1ccccc1)c1nc2ccccc2n1C (configuration not stated)	-4	1	7	4	-1	i	-15	-277
Cc1ccc(NC(=O)CN(C)C2CCCCC2)cc1Cl	0	4	0	-5	6	i	-3	-3
O=C(O)[C@H](CO)Nc1ncnc2sc3c(c12)CCC3	·	·	·	-1	0	i	4	·

A section from further up, for reference:
SMILES	UUG fidelity	MT1-MMP act inh	MT1-MMP act inh RFP	eIF4H inh	PABP FP inh	Rce1 inh	CSC inhib	HIV Env fusion	others
COc1cc(NC(=O)c2ccc(Cl)cc2Cl)ccc1-c1cc2ccccc2oc1=O	-9	13	5	-7	-4	i	4	-148
N#C/C(=C\c1ccc(-c2ccccc2Cl)o1)C(=O)Nc1nc2ccccc2s1	-7	-2	0	19	10	i	3	-1
CNS(=O)(=O)c1ccc(NC(=O)c2cc(-c3ccncc3)nc3ccc(Cl)cc23)cc1	4	-1	-1	-10	-6	i	1	11
O=C(NCc1ccc2c(c1)OCO2)C(=O)NC1CCCCC1	-16	-7	-7	6	2	i	-17	-2
Cc1ccc(S(=O)(=O)Nn2cnnc2)cc1	·	3	2	8	14	i	-13	-1
COc1ccc(/C(C)=N/NC(=O)CNC(=O)c2ccncc2)cc1	-4	1	5	-14	-2	i	-5	17
CCOc1cc(N2CCOCC2)c(OCC)cc1NC(=O)CN1CCSC1=O	-16	4	5	·	·	·	·	-5

The list goes on.
SMILES	UUG fidelity	MT1-MMP act inh	MT1-MMP act inh RFP	eIF4H inh	PABP FP inh	Rce1 inh	CSC inhib	HIV Env fusion	others
COc1cc(-c2ccc3c(=O)c4ccccc4n(C)c3c2)cc(OC)c1OC	-11	-2	2	-5	2	i	93*	23
COc1cccc(-n2cnc3sc4c(c3c2=O)CCC4)c1	·	-1	2	-5	0	i	13	21
CN(C)S(=O)(=O)c1cccc(COC(=O)c2ccc3c(c2)OCO3)c1	·	10	2	-2	-1	i	-2	2
Cc1ccc(C)c(SCC(=O)NC(=O)Nc2ccc3c(c2)OCCO3)c1	·	1	5	-4	-9	i	4	-2
CN(CC(=O)Nc1nc2ccc(F)cc2s1)S(=O)(=O)c1ccc(Cl)cc1	-23	-2	-8	0	3	i	7	·
Cc1ccc(N/C=C/C(=O)c2cccs2)cc1	-65	-3	-1	-6	-8	i	6	-67
CCCCOc1ccc(/C=N/NC(=S)Nc2cc(C)ccc2C)cc1	-19	-6	-5	3	3	i	16	-66
CCOC(=O)/C(C#N)=C/C1=C(N2CCOCC2)CC(C)(C)OC1	-21	-7	-1	8	-16	i	-1	14
CCOC(=O)C1=C(C)N=C(/N=C/N(C)C)SC1c1ccccc1 (configuration not stated)	-28	-2	-2	-5	-6	i	·	·
COc1ccc(Nc2cc(C)nc3nc(C)nn23)c(OC)c1	-5	-1	4	0	-3	i	1	-3
COc1ccc(CNC2=CC(=O)CC(C)(C)C2)cc1	-20	2	2	3	10	i	-7	-41
COc1cc(/C=C/c2ccccc2)cc(OC)c1	-19	-1	1	·	·	·	·	-30
CC(C)c1ccc(NC(=O)COC(=O)[C@@H]2CCCN2C(=O)c2cccs2)cc1	18	-1	0	·	·	·	-11	·
CCN1C(=O)[C@H]2[C@@H](c3ccc(C)cc3)N3C(=O)N(c4ccc(C(F)(F)F)cc4)C(=O)[C@@]3(CC)[C@H]2C1=O	-16	3	-3	7	-6	i	6	?
COc1cc(NC(=O)C(Cc2ccccc2)n2cccc2)cc(OC)c1 (configuration not stated)	·	-1	-2	3	0	i	-3	18
O=C(CSc1ccccc1F)OCC(=O)N1CCN(C(=O)c2ccco2)CC1	-17	-3	0	·	·	i	-15	0
CCCCN(CCCC)C(=S)NC(=O)C(C)(C)C	-2	-2	1	-3	-2	i	4	-21
CC(=O)c1c(C)[nH]c(C(=O)NCCc2ccccc2)c1C	-28	3	3	4	8	i	-10	·
COCc1cc(=O)[nH]c(N2CCN(Cc3ccc4c(c3)OCO4)CC2)n1	-8	-4	-2	7	-4	i	-7	-1
